Beta cell apopt: inhibitors of cytokine-induced beta cell apoptosis, primary screen, luminescence | INS-1E cytokine-induced death, ATP luminescence, 48 h; percent of positive-control rescue, neutral wells zero | protection from apoptosis, % (no concentration beside the values) | actives 0.8% (n = 300,000);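 active means all replicates at 75% or more, or half of them and the mean; inconclusive means half reach 75% but not the mean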;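 further: 0% = cytokine-treated negative control wells and 100% = positive control rescue; higher means more ATP so stronger rescue from cytokine killing; wells of about 40 µL received 100 nL stock; the first replicate is given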
Vif A3G: inhibitors of Vif binding to APOBEC3G peptide, primary screen, biochemical, TR-FRET, GST-Vif 1-94, biotin-A3G peptide, dose response retest (AID 1117319); Virion infectivity factor (Human immunodeficiency virus type 1 group M subtype B (isolate …; TR-FRET GST-Vif / biotin-A3G peptide binding; higher % means a stronger effect; test concentration not given here; strong numbers were not always called active; one-dose inhibition, %; IC50 in µM for titrated hits; actives 0.57% (n = 260,000);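 active means above the screen mean plus three standard deviations and confirmed in dose response; inconclusive means results disagree or hit not tested in dose response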;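 further: Vif residues 1-94 fused to GST binding biotinylated APOBEC3G peptide 110-148; 0% = full assay without inhibitor and 100% = GST in place of GST-Vif; retest series ran down from 100 µM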
Bfl-1 A1 inh: caspase 3/7 activation in MEF A1-2A-BIM cells, primary screen, A1 inhibitor project, cell-based, luminescence, HTS. Caspase-Glo 3/7 luminescence, 3 h; percent of clofoctol response, vehicle zero. caspase activation, % (test concentration not listed). actives 0.066% (n = 330,000). AID 2462, 2010;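 active means over half of replicate activation scores above 10%, or exactly half above 10 with the replicate mean above 10; inconclusive means replicate mean below 10 yet half the replicates above 10; inactive means over half of replicates below 10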;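 further: wells of about 30 µL received 50 nL stock; many hits fall short of the cut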
Calb FLC: C. albicans growth inhibition with fluconazole, primary screen, CaCi-2 strain, Alamar Blue fluorescence. AID 1979, 2009. C. albicans CaCi-2 (fluconazole-resistant clinical isolate) + fluconazole, 48 h. growth inhibition, % (no concentration beside the values). actives 0.57% (n = 300,000);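 active means most replicates above 75%; inconclusive means exactly half above 75%; inactive means most below 75%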;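 further: all wells also contain fluconazole at 8 µg/ml as a sub-toxic cotreatment; 0% = median of DMSO wells and 100% = median of geldanamycin control wells; wells of about 8 µL received 7.5 nL stock; the first replicate is given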
RanGTP-Impb inh: inhibitors of RanGTP-importin-beta interaction, primary screen, biochemical, FRET, CFP-Ran, YFP-importin-beta, homogeneous; Ran GTPase (GTP-bound) - importin-beta complex; AID 2216, 2009; actives 1.1% (n = 300,000); inhibition, % (concentration not given with the values); cell-free CFP-Ran/YFP-importin-beta FRET ratio;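 active means most replicates above 15%; inconclusive means exactly half above 15%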;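 further: 0% = DMSO wells and 100% = Ran loaded with GDP instead of GTP; wells of about 40 µL received 100 nL stock; the first replicate is given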
rRNA inh HTS: reduced GFP signal of wild-type E. coli, primary screen, bacterial rRNA inhibitor project, GFP/RFP fluorescence, OD600, single point. E. coli WT GFP vs humanized-ribosome RFP mutants, 24 h; active compounds read low; DMSO median 0, no signal -100. GFP signal change (wild-type ribosome), % (concentration not given with the values). AID 720706, 2013. actives 1.6% (n = 350,000);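 active means significant combined selectivity score with lowered wild-type GFP, culture density cut under 30%, mutant RFP and density less affected; inactive means any of these conditions unmet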; further: one replicate is shown; some compounds called inactive have numbers as strong as hits
T cruzi inh: inhibitors of intracellular T. cruzi growth, primary screen, luminescence, NIH3T3 host cells. T. cruzi beta-gal in NIH3T3, 90 h. inhibition, % (concentration not given with the values). actives 1.4% (n = 300,000). AID 1885, 2009;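 active means mean inhibition across valid replicates above about 55%, limit read from the data; inconclusive means mean below that limit but half or more replicates reach it; inactive means mean below it, under half of replicates reach it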;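 further: signal also drops with host cell toxicity which is not excluded here; 0% = plate median of DMSO wells and 100% = zero luminescence signal; higher percent means less beta-gal luminescence so fewer parasites; stock transfer was 50 nL into about 50 µL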
MLL AF4-AF9 inh: inhibitors of AF4 peptide binding to AF9, primary screen, biochemical, AlphaScreen, biotin-AF4 peptide, FLAG-AF9, single point | Protein AF-9 (Homo sapiens), P42568 | actives 0.47% (n = 350,000) | inhibition, % at 10 µM;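 active means every replicate reaching a set inhibition limit, whatever the replicate mean, cut at about 25% in these data; inconclusive means mean inhibition reaches that limit but some replicates miss it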;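 further: 0% = plate neutral control median and 100% = total signal loss; the record names both 10 and 1 µM as test concentration; the first replicate is given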
Target sequence (P42568 whole entry, looked up): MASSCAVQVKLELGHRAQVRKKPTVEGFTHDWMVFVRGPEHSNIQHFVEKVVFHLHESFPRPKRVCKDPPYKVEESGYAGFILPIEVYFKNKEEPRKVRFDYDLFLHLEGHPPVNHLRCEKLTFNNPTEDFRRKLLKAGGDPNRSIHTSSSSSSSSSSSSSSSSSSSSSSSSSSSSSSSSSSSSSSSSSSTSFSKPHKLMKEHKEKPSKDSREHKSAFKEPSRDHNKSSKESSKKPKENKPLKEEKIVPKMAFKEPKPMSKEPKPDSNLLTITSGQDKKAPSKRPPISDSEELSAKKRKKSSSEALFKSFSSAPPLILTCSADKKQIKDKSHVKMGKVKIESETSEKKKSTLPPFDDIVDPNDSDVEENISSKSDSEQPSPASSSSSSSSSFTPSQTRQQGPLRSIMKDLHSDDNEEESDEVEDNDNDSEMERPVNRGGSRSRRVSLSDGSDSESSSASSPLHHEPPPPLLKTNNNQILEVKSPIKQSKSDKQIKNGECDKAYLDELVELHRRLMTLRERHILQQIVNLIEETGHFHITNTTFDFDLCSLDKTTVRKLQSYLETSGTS
rRNA inh HTS OD600: recorded beside rRNA inh HTS, whose call it bears; OD600 change, %; measured here: OD600 growth;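 optical density of the mix in the first replicate; 0 = DMSO median and -100 = no signal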
rRNA inh HTS RFP: also measured in rRNA inh HTS; calls as there; RFP signal change, %; measured here: RFP humanized mutant strains;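 first replicate; 0 = DMSO median and -100 = no signal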
* marks the source's active call; other numbers are inactive results; ? = inconclusive; · = not tested or not shown; & = joins results of further samples. Not all compounds are listed; count on the stated rates, not on these rows.

SMILES	Beta cell apopt	Vif A3G	Bfl-1 A1 inh	Calb FLC	RanGTP-Impb inh	rRNA inh HTS	rRNA inh HTS OD600	rRNA inh HTS RFP	T cruzi inh	MLL AF4-AF9 inh
C[C@H](CO)N1C[C@H](C)[C@@H](CN(C)C(=O)Nc2ccc3c(c2)OCO3)Oc2c(NC(=O)C3CCCCC3)cccc2C1=O	4.8	·	-1.3	·	·	2.0&10.4	3.9&-1.3	-0.7&4.5	·	0.0&1.0
Nc1nc(Nc2ccc(Cl)cc2)nc(NCc2ccco2)c1[N+](=O)[O-]	·	16.1%	0.3	5.3	5.5	-19.9	-2.6	0.9	18.0	-0.9
O=C(CCCN1C(=O)NC2(CCCC2)C1=O)NCc1ccccc1	3.5	-3.6%	-0.6	·	·	7.6	5.5	1.0	·	-0.7
O=C(Cc1cccs1)NCc1ccncc1	-1.6	?	0.4	-6.1	1.3	9.9	8.7	-0.2	-13.3	2.5
COc1ccc(-c2cc(-c3ccccc3)nc(NN)n2)cc1OC	5.1	·	0.5	20.7	0.5	-2.7	23.9	1.9	-11.1	5.2
Cc1noc(C)c1NC(=O)Nc1ccc2c(c1)C(=O)N([C@H](C)CO)C[C@H](C)[C@@H](CN(C)C(=O)Nc1c(C)noc1C)O2	-1.3	·	0.4	·	·	-0.1&9.2	8.0&12.4	-2.8&-7.2	·	-2.4&-3.2
CCOC(=O)C(C)c1ccc2cc(OC)ccc2c1 (stereo unspecified)	-4.3	-6.7%	-0.6	0.6	3.4	·	·	·	4.6	·
CC(C)CN(C(=O)CCCc1nc2ccccc2c(=O)[nH]1)c1c(N)n(Cc2ccccc2)c(=O)[nH]c1=O	-7.0	-5.3%	0.2	1.4	-0.2	13.7	17.5	1.9	1.9	0.3
COc1cccc(OC)c1OCCCOc1c(OC)cccc1OC	-5.2	-5.8%	-1.1	9.5	-3.9	·	·	·	3.1	·
COc1cc(C(=S)N2CCOCC2)ccc1OC(=O)c1ccc(Br)cc1	-8.2	·	-0.7	-2.5	4.9	-4.5	-0.7	2.3	2.3	8.9
Cc1cc(C(=O)COC(=O)CNS(=O)(=O)c2ccc3ccccc3c2)c(C)n1-c1ccccc1	·	4.7%	-0.1	-3.2	-1.9	·	·	·	4.1	·
Cc1ccccc1NC(=S)N(C)CCc1ccccn1	2.7	·	0.3	-7.6	-2.7	·	·	·	1.6	·
O=C(C1=C[C@H](c2ccc3c(c2)OCO3)C[C@H](OCCCCO)O1)N1CCOCC1	-4.1	·	0.4	-7.9	-2.7	16.6	5.1	-3.7	3.6	-4.9&-4.5
Cc1cc(C(=O)CCC(=O)NCc2ccccc2F)c(C)s1	-0.5	3.3%	1.1	-2.1	1.1	0.1	0.4	1.4	19.0	-0.6
CCOC(=O)c1nnn2c1nc(Nc1cccc(C(F)(F)F)c1)c1ccccc12	57.6	-34.1%	-0.5	-2.9	4.1	·	·	·	5.5	-1.1
Nc1cnc(Br)cc1Br	-3.9	13.3%	-0.1	4.7	3.1	·	·	·	-13.1	·
Cn1c(-c2ccccc2)cnc1NCc1ccc(-c2ccccc2)cc1	-2.3	-5.3%	0.0	-16.6	0.1	-54.6	-81.5	-15.1	32.1	5.8
CCOC(=O)N1CCN(C(=O)c2nn(-c3cc(OC)cc(OC)c3)c(=O)c3ccccc23)CC1	-4.9	-13.9%	0.5	19.1	·	·	·	·	·	·
COc1cccc(-n2c(SCC(N)=O)nnc2-c2c[nH]c3ccccc23)c1	-2.0	26.6%	0.1	1.2	-0.4	-6.1	-1.0	-0.2	-3.5	2.7
CC(=O)c1ccc(S(=O)(=O)N2CCN(CC(=O)Nc3ccccc3C(=O)NC3CC3)CC2)cc1	3.9	·	1.1	·	·	1.3	3.1	3.0	·	5.5
Cc1cc(NC(=O)Cc2ccccc2)c2ccccc2n1	57.4	·	-0.3	-1.3	0.4	5.6	7.4	0.8	21.3	-5.3
CCCC(=O)OCCNc1cc(SCCC(=O)OC)c2nonc2c1[N+](=O)[O-]	·	·	-0.5	-27.3	0.7	·	·	·	-8.5	·
Cc1cc(S(=O)(=O)N2CCN(Cc3ccc4c(c3)OCO4)CC2)cc(C)c1N1CCCC1=O	-2.1	5.8%&1.3%	-0.1	-6.7	-1.4	-9.6	-29.5	8.0	4.6	-3.2
CC[C@H](C)[C@@H](C(=O)NCCCCCCCCCCC(=O)N1CCNCC1)n1cc(CCCCN=C(N)N)nn1	-14.0	·	0.9	·	·	-4.3	-29.6	33.5	·	14.9
Cc1cccc(C(=O)OCC(=O)c2ccc3c(c2)OCCO3)c1O	2.9	·	-12.9	·	·	8.7	10.5	-0.7	·	0.6

Additional results
SMILES	Beta cell apopt	Vif A3G	Bfl-1 A1 inh	Calb FLC	RanGTP-Impb inh	rRNA inh HTS	rRNA inh HTS OD600	rRNA inh HTS RFP	T cruzi inh	MLL AF4-AF9 inh
COC(=O)CSc1nc(N)c(NC(=O)c2ccc(OC)c(OC)c2)c(=O)[nH]1	-4.1	24.9%	0.0	2.4	1.6	2.8	5.6	-6.2	-18.5	-5.6
Cc1csc(NC(=O)CSc2nc3sc(C)c(C)c3c(=O)[nH]2)n1	-0.8	-3.3%	1.6	35.7	-1.9	·	·	·	-19.2	·
O=C(c1ccc(CS(=O)(=O)c2ccc(Br)cc2)o1)N1CCOCC1	-2.2	0.2%	0.4	5.8	-1.7	5.2	9.3	-1.7	2.3	-1.2
COc1ccccc1NC(=O)CN1CCN(c2ccccc2)CC1	-2.7	-5.2%	0.0	9.2	1.6	0.6	-1.1	-8.4	4.8	-3.0
Cc1cc(C)n(-c2ccc(C(=O)OCC(=O)Nc3cc(Cl)ccc3[N+](=O)[O-])cc2)n1	-0.4	·	0.3	2.3	4.7	·	·	·	2.5	·
CCn1nc(CC(C)C)cc1C(=O)N1CCCC(Nc2ccc(F)cc2)C1 (stereo unspecified)	-2.5	·	1.3	14.8	?	-5.0	-13.8	-0.8	-5.3	2.1
Cc1cccc(NC(=O)NCCCCc2ccccc2)c1	-1.5	-6.0%	-3.0	-0.4	-0.1	-59.5	-71.2	-16.4	5.5	-1.7
COc1ccccc1CN1CCN(Cc2nc(-c3cccs3)no2)CC1	-0.1	6.0%	-0.5	-5.5	-0.1	13.2	-3.9	-5.0	61.0*	-12.5
COc1ccc(CCNC(=O)C2CCCN2C(=O)Nc2ccccc2)cc1OC (stereo unspecified)	-5.9	·	0.3	0.6	-0.8	7.8	12.7	2.0	-6.1	1.8
Cn1cc(CNC(=O)c2cc(-c3ccccc3)nc3ccc(Br)cc23)cn1	1.0	·	-0.2	42.1	1.7	·	·	·	7.1	·
Cc1ccc(Nc2nc3ccccc3s2)cc1	-10.1	·	-6.2	-8.2	6.1	·	·	·	24.8	-1.0
N=C(N)N1CCc2ccccc21	-2.5	-4.6%	-0.5	-0.2	-2.3	12.8	3.9	-0.4	1.0	0.2
O=C(CN1C(=O)/C(=C/c2ccccc2F)Sc2ccccc21)NCc1cccnc1	11.2	18.6%	0.1	9.5	1.0	-29.2	-47.8	-7.2	-31.1	5.0
O=C(NCCN1CCc2ccccc2C1)C1CCN(S(=O)(=O)N2CCC3(CC2)OCCO3)CC1	4.3	-1.7%&-9.2%	0.3	1.5	-0.3	8.6	-4.9	-1.8	4.6	8.0
Cn1cccc1/C=C1\SC(=Nc2ccc(O)cc2)NC1=O	18.1	-0.3%	-1.4	-1.6	-0.9	-25.2	-53.7	-8.3	23.2	6.6
COc1cccc(NC(=O)c2ncn[nH]2)c1	0.0	13.5%	-2.5	-2.5	-0.3	·	·	·	9.7	·
O=C(NNc1c(Cl)cc(Cl)cc1Cl)c1n[nH]c(=O)c2ccccc12	3.5	8.3%	-1.0	0.4	0.5	6.0	16.2	0.5	-8.4	1.6
O=C1NC(=O)c2cc(Oc3ccc([N+](=O)[O-])cc3)ccc21	3.0	-3.0%	-0.5	14.8	-2.3	·	·	·	-18.0	1.1
CSc1nc(N(C)NC(=O)c2ccc(Cl)cc2)c2ccccc2n1	32.2	16.0%	0.7	-1.7	9.1	·	·	·	21.6	·
NC(=O)c1ccc(NC(=O)CNC(=O)c2sc3ccccc3c2Cl)cc1	-0.6	-10.7%	0.8	·	·	-2.4	13.4	-2.4	·	-3.6
COc1ccccc1C(=O)NNC(=O)c1ccc(NC(=O)CC(C)C)cc1	-6.9	-3.8%	-1.1	-10.1	-1.9	4.1	5.4	1.2	-0.7	-1.4
FC(F)(F)c1cc(N2CCNCC2)c2ccccc2n1	-4.2	·	3.0	1.4	1.8	·	·	·	-3.6	-4.8
COc1ccc(CCNC(=O)Cc2ccsc2)cc1	-5.8	·	0.5	22.8	-1.0	12.1	14.2	-0.5	-32.3	-2.7
Cc1ccc(NC(=O)c2ocnc2C)cc1Cl	6.1	-3.8%	-5.7	9.8	-1.7	-14.2	4.4	-3.5	-24.8	-38.1
CCOC(=O)c1c(C)[nH]c(C)c1S(=O)(=O)NCCCN1CCOCC1	-6.0	·	-0.3	-3.1	-1.5	5.2	8.1	0.3	-1.4	-3.2

Additional records:
SMILES	Beta cell apopt	Vif A3G	Bfl-1 A1 inh	Calb FLC	RanGTP-Impb inh	rRNA inh HTS	rRNA inh HTS OD600	rRNA inh HTS RFP	T cruzi inh	MLL AF4-AF9 inh
COc1cccc(N=Nc2c(C)[nH]n(-c3ccccc3)c2=O)c1	·	·	-0.7	1.3	-3.5	-3.2	9.1	-0.2	11.8	10.1
COc1ccccc1NC(=O)CSc1nc2ncccc2[nH]1	2.2	3.5%	-1.3	3.6	6.4	1.4	-7.2	0.2	-7.8	-6.5
O=C(CSc1nnnn1Cc1ccccc1)c1ccc(F)cc1	-0.6	3.4%	-0.2	-6.0	-0.7	0.7	4.9	0.4	11.6	1.6
CCCCCNc1nc2sc3c(c2c(=O)n1-c1cccc(Cl)c1)CCN(C)C3	10.1	-8.4%	-0.4	-10.6	44.1*	-22.5	-4.0	11.6	·	0.2
Cc1ccc2nc(SCC(=O)Nc3ccc(F)cc3F)nc(=O)n2c1	·	9.8%	1.1	-1.1	-3.6	11.4	-0.6	-1.6	-5.9	-0.9
CN(CC(=O)Nc1ccc(C(N)=O)cc1)CC(=O)Nc1ccccc1Cl	-12.3	-0.3%	1.7	4.3	1.7	6.5	3.1	-2.1	1.8	4.0
O=C(c1ccc([N+](=O)[O-])cc1)N1CCSC1c1ccc(Br)cc1 (stereo unspecified)	6.9	4.5%	-0.4	-1.5	-1.4	-17.9	-11.4	-1.3	13.0	12.1
CCOc1ccc(S(=O)(=O)N2CCCCC2)cc1NC(=O)CN1C(=O)NC(C)(c2ccc(C)cc2)C1=O (stereo unspecified)	·	2.2%	0.2	5.4	?	·	·	·	30.5	·

Source: PubChem BioAssay
